PINK1 modulator: A Quantitative High throughput Screen to Identify Chemical Modulators of PINK1 Expression. PINK1 immunofluorescence, high-content cytometry, 24 h. Potency, µM (highest dose often 76.6 µM), for inactives: at the top dose activation (PINK1 increase), most hits filed as activators. 410,000 tested, 0.2% active. AID 624263, 2012; active = well fitted activation curve with a large enough effect; inconclusive = small, poorly fitted or top-dose-only effect; inactive = flat fitted curve, though single readings scatter; cell line not stated here;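 also: potency is read from the fitted curve at half-maximal effect; % of control where 0% means no effect; nearly all actives have a fitted effect of over 65% in size; a mitochondrial uncoupler was the plate control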
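Stable cell line, 250 cells/well, 12 h attachment; compounds pinned at 5 concentrations, 24 h; CCCP control. Fixed with nuclear dye, primary antibodies 12 h at 10 degrees C, secondary plus cell stain; laser-scanning cytometer read.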
Six1-Eya2 blk: qHTS Assay for Inhibitors of the Six1/Eya2 Interaction | Homeobox protein SIX1 (Homo sapiens) + Protein phosphatase EYA2 (Homo sapiens), … | AlphaScreen GST-Six1/His-Eya2 binding, biochemical; hits give low values; control for the full effect not named in the record | activity change, % (no concentration beside the values) | 360,000 tested, 0.56% active | AID 651725, 2012; in the data active = activity change below about -65%; inconclusive = about -30% to -65%; inactive = above about -30%; also: % is scaled to controls: 0 for no effect and ±100 for the full control effect; compound concentration not given in the record
Target sequence (O00167 whole entry, looked up): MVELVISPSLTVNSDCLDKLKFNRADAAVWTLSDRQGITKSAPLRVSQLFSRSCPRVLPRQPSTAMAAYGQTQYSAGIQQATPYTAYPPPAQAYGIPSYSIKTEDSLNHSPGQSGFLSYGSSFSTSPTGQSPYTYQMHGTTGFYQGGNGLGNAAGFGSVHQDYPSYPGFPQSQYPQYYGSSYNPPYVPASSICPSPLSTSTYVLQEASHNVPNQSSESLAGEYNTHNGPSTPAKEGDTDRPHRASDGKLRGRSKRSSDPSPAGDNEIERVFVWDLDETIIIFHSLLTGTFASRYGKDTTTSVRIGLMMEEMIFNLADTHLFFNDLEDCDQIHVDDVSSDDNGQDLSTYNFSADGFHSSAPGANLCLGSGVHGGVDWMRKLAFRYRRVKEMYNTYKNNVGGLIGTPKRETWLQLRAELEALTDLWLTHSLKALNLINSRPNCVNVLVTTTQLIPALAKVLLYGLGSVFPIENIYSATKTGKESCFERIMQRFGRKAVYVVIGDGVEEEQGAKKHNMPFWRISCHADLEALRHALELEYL
Target sequence (Q15475 whole entry, looked up): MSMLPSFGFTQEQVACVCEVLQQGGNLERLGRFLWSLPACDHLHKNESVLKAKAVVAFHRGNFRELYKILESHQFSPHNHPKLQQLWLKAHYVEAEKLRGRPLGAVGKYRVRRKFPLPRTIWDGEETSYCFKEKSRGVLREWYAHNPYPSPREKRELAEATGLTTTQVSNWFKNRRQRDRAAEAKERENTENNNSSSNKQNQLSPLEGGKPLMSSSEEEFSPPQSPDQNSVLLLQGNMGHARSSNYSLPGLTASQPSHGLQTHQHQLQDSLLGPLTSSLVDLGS
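AlphaScreen with GST-Six1 and His-Eya2 (5X mix: 250 nM and 500 nM), glutathione donor and nickel acceptor beads; buffer 50 mM Tris pH 8.0, 300 mM NaCl, 1 mM TCEP; 1 h at 37 C in the dark.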
TRPML1 blocker: qHTS for Inhibitors of the Human Mucolipin Transient Receptor Potential 1 (TRPML1); Mucolipin-1 (Homo sapiens), Q9GZU1; TRPML1-inducible cells, Ca2+ dye fluorescence, FDSS; hits give low values; inhibition of EC80 agonist-evoked calcium signal; activity change, negative = inhibition, % (concentration not given with the values); 390,000 tested, 0.02% active; AID 624415, 2012; in the data active means activity change below about -50%; inconclusive means about -30% to -50%; inactive means above about -30%;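 also: stimulus is agonist 54-4 at its EC80 concentration; % is scaled to controls: 0 for no effect and ±100 for the full control effect; compound concentration not given in the record; the text of the record puts the active cut at -80%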
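Tet-induced TRPML1-DL cells loaded with Ca8 no-wash calcium dye were read kinetically on FDSS. Compound addition was followed by EC80 agonist 54-4 (4 uM final); inhibition was read over 110 s.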
D2 agonist: Beta-Arrestin HTS for Positive Allosteric Modulators of the Human D2 Dopamine Receptor: Agonists | DiscoveRx PathHunter D2 beta-arrestin, luminescence, 90 min; 100% = 57 uM dopamine signal | D(2) dopamine receptor (Homo sapiens), P14416 | 360,000 tested, 0.084% active | activation, % (concentration not given with the values) | AID 624465, 2012; in the data active = activation above about 40%; inconclusive = about 15% to 40%; inactive = below about 15%; also: compound concentration not given in the record; the text of the record calls up to 30% inactive
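Agonist mode: compounds alone added to overnight-plated D2 PathHunter cells for 90 min at 37 C, with 57 uM final dopamine (EC100) defining full response. Beta-arrestin recruitment detected by chemiluminescent reagent, read after 1 h at ambient temperature.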
D2 PAM: Beta-Arrestin HTS for Positive Allosteric Modulators of the Human D2 Dopamine Receptor: Potentiators; potentiation, % (concentration not given with the values); DiscoveRx D2 beta-arrestin cells, luminescence, 90 min; 100% = 57 uM dopamine signal; 360,000 tested, 0.23% active; active = potentiation of 50% or more; inconclusive = 30% to 50%; inactive = 30% or less;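 also: compound concentration not given in the record; tested on top of an EC20 dose of dopamine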
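D2 cells co-treated with compound plus 50 nM dopamine (EC20) for 90 min at 37 deg C to detect potentiation. Beta-arrestin recruitment was read as enzyme-fragment luminescence after 1 h at ambient temperature. Full response was set by 57 uM dopamine.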
TRPML1 ag: qHTS for Agonists of the Human Mucolipin Transient Receptor Potential 1 (TRPML1); 410,000 tested, 0.12% active; TRPML1-expressing cells, Ca2+ dye fluorescence, FDSS; host cell line not named in the record; reference of the full effect not given here; AID 624414, 2012; activation, % (concentration not given with the values); Mucolipin-1 (Homo sapiens), Q9GZU1; in the data active = activation above about 50%; inconclusive = about 30% to 50%; inactive = below about 30%; also: 0% is about no effect; the text of the record puts the active cut at 80%
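Cells: TRPML1-DL, 1X Tet inducer, ~16 h at 37 degrees C/5% CO2. Dye: ABD Ca8 no-wash + quencher, 45-90 min RT. Read: 10 s baseline, compound add, 110 s agonist phase; 54-4 EC80 (4uM final), 110 s antagonist phase.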
Starred values were filed as active, the others as inactive; ? = inconclusive; . = no result given; [ ] = dose if it differs, or a comment.

SMILES	PINK1 modulator	Six1-Eya2 blk	TRPML1 blocker	D2 agonist	D2 PAM	TRPML1 ag
CCC(Sc1nnc2c3ccccc3n(CC)c2n1)C(=O)Nc1ccc(NC(C)=O)cc1 (configuration not stated)	3.3%	.	7	.	.	-0.7
O=C(COC(=O)Cc1ccc(Cl)c(Cl)c1)NCCc1ccccc1	-1.0%	5	-4	0.2	0	-0.4
CCn1c(SCC(=O)Nc2ccccc2C(=O)OC)nnc1-c1ccoc1C	1.4%	3	68	-2.7	-2	0.5
Clc1ccc(-c2cn3ccccc3n2)cc1	0.4%	-1	-2	3.7	4	0.4
COCCCNC(=O)Cc1ccc(-n2c(C)nc3cccnc32)cc1	-1.0%	5	5	-0.7	-3	0.6
COc1ccc2c(c1)CCCC21NC(=O)N(CC(N)=O)C1=O (configuration not stated)	12%[38.3 µM]	2	-17	-0.9	6	0.2
Cc1nc2sc(C(c3ccco3)N3CCN(c4ccccc4)CC3)c(O)n2n1 (configuration not stated)	-0.1%	-1	-1	-1.6	-4	-0.1
CC1CC(=O)Nc2ccccc2N1S(=O)(=O)c1ccc(C(F)(F)F)cc1 (configuration not stated)	0.8%	9	0	-0.3	-4	0.9
CN(CC(=O)Nc1ccc(Cl)c(Cl)c1)C(=O)c1ccccc1SCC(=O)N1CCCC1	1.0%	-15	1	0.6	-8	-0.7
COc1ccc(-c2cn3nc(N4CCC(C(=O)NCc5ccc(F)cc5)CC4)sc3n2)cc1	-1.2%	.	4	.	.	0.6
CC(=O)c1ccc(-c2[nH]c3ccccc3c2CCN2C(=O)c3ccccc3C2=O)cc1	0.0%	-8	34	0.9	.	0.6
COc1ccc(C(=O)NCc2cn3c(C)csc3n2)cc1OC	.	-1	-8	0.2	3	-0.1
COc1ccc(OC)c(N(CC(=O)Nc2ccc(NC(C)=O)cc2)S(C)(=O)=O)c1	.	2	21	-0.6	10	0.4
Nc1ccn([C@@H]2O[C@H](CO)[C@@H](O)[C@@H]2O)c(=O)n1	-0.9%	0	-7	-5.2	12	-0.3
N#Cc1ccc(Cl)cc1NC(=O)CNCc1cccs1	2.7%	4	-7	1.3	0	-0.9
COC(=O)c1cc(NC(=O)CSc2nncn2C)cc(C(=O)OC)c1	-0.6%[38.3 µM]	0	0	0.6	-4	2.6
Cn1ccc(NS(=O)(=O)c2cc(Br)ccc2Br)n1	-0.9%	11	3	0.8	5	-0.1
CCOc1ccc2nc(N3CCCC(C(=O)NCc4ccc(C)cc4)C3)sc2c1 (configuration not stated)	0.3%	.	-9	.	.	0.0
O=C(Cc1ccccc1)NCC(=O)Nc1ccc(OC(F)(F)F)cc1	0.9%	1	15	-2.7	6	-0.1
C[C@@H](NC(=O)[C@@H]1Cc2ccccc2CN1)C(=O)NCc1ccco1	0.0%	0	1	-0.1	-2	-0.4
O=S(=O)(c1ccccc1)c1cnc(-c2cccnc2)nc1-c1ccc(Cl)c(Cl)c1	-1.0%	7	20	1.0	0	-0.5
COc1ccc(S(=O)(=O)Nc2ccccn2)cc1OC	-0.5%[38.3 µM]	-1	-5	-0.7	-3	0.2
CC(C)C[C@@H]1Cc2[nH][nH]c(=O)c2[C@H](C(C)C)O1	-0.9%	18	.	.	.	-0.6
CCn1cnc2c1c(=O)n(Cc1csc(-c3ccccc3)n1)c(=O)n2Cc1ccccc1	-2.0%	-9	-5	-0.3	-1	0.2
Cc1ccccc1-c1cc(C(=O)NCc2cccs2)n(CC2CC(c3cccnc3)=NO2)n1 (configuration not stated)	4.7%	0	41	-1.9	-16	2.0

3 structures from above, sorted by length of the SMILES, ascending:
SMILES	PINK1 modulator	Six1-Eya2 blk	TRPML1 blocker	D2 agonist	D2 PAM	TRPML1 ag
COCCCNC(=O)Cc1ccc(-n2c(C)nc3cccnc32)cc1	-1.0%	5	5	-0.7	-3	0.6
CCn1c(SCC(=O)Nc2ccccc2C(=O)OC)nnc1-c1ccoc1C	1.4%	3	68	-2.7	-2	0.5
CC(C)C[C@@H]1Cc2[nH][nH]c(=O)c2[C@H](C(C)C)O1	-0.9%	18	.	.	.	-0.6

Later entries.
SMILES	PINK1 modulator	Six1-Eya2 blk	TRPML1 blocker	D2 agonist	D2 PAM	TRPML1 ag
Cc1ccc(-c2n[nH]c(Cc3ccccc3)n2)cc1	1.2%	7	14	2.1	-6	0.6
O=C(O)c1ccc(NS(=O)(=O)c2cccc(C(=O)Nc3ccc([N+](=O)[O-])cc3)c2)cc1	1.2%	0	0	-5.0	-14	-0.1
CCOC(=O)c1c(-c2ccc(C)cc2)cn2ccccc12	17%	25	37	-2.0	-16	1.0
COc1ccc(-c2ccc3c(c2)S(=O)(=O)c2cccc(C(=O)NC[C@@H]4CCCO4)c2C3=O)cc1OC	7.7%	-2	-7	?	25	-0.7
COc1ccccc1NC(=O)CSc1nncn1-c1ccccc1	2.5%	0	-6	-5.1	-8	0.8
NC(=O)c1ccc(Nc2ccc([N+](=O)[O-])cc2[N+](=O)[O-])cc1	-2.3%	-7	-7	9.9	16	0.9
Cc1ccc(CNC(=O)CN(c2ccc(C)cc2)S(=O)(=O)c2c(C)n[nH]c2C)cc1	-0.6%	0	2	-4.6	-17	0.6
O=C1COc2ccc(S(=O)(=O)N3CCN(c4ccccc4)CC3)cc2N1	6.0%	-3	9	2.1	-4	0.7
Cn1c(C(=O)N(Cc2ccccc2)Cc2cccs2)cc2sccc21	2.6%[38.3 µM]	-14	36	-4.4	-9	0.9
CCOC(=O)c1csc(COc2ccccc2Cl)n1	12%	11	7	-1.2	-15	-0.5
C=CCn1c(SCC(=O)c2ccc(O)c(O)c2)nnc1-c1cccc(OC)c1	0.6%	-4	18	1.4	-4	0.4
CCc1nc2c(OCc3ccc(Cl)cc3)cccn2c1N(C=O)Cc1ccc(OC)cc1	11%	-13	.	4.4	-5	-0.3
CCOc1ccc(S(=O)(=O)NCC2(N3CCCCC3)CCCCC2)cc1	-0.8%	-1	-2	1.7	-13	0.4
CC(C)CC(NS(=O)(=O)c1cccc(C(=O)O)c1)C(=O)O (configuration not stated)	0.0%	-4	17	-8.7	-18	-0.8
N#CC1=C2SCN(Cc3ccccc3)CN2C(=O)CC1c1cccs1 (configuration not stated)	2.8%	-2	-12	-1.1	-9	0.2
O=C(CN1C(=O)NC2(CCc3ccccc32)C1=O)Nc1cc(C(F)(F)F)ccc1N1CCOCC1 (configuration not stated)	-0.8%	0	2	-3.3	1	0.8
COc1ccc(OCC(=O)Nc2sc3c(c2C(=O)NCC2CCCO2)CCC3)cc1 (configuration not stated)	11µM*	-1	-5	-0.5	0	1.8
COc1cc(-c2noc(-c3cc4cc(F)ccc4oc3=O)n2)cc(OC)c1OC	-0.8%	.	-5	.	.	0.1
CCOC(=O)N1CCN(Cc2nnc(-c3ccccc3Cl)o2)CC1	4.4%	4	-3	2.6	-15	-0.5
COC(=O)c1cnn(-c2ccc(C(=O)Nc3cc(OC)c(OC)c(OC)c3)cc2)c1N	1.9%	.	0	.	.	1.2
CCOC(=O)CN1C(=O)S/C(=C/c2cc(C)n(-c3ccccn3)c2C)C1=O	-0.3%	-11	-2	-3.7	-4	-0.2
O=C(CC1SC(N2CCOCC2)=NC1=O)Nc1ccccc1F (configuration not stated)	1.4%	-4	10	-0.4	-21	-1.3
COC(=O)C1=C(C)NC(=O)C1(NC(=O)c1cccnc1)C(F)(F)F (configuration not stated)	0.9%	4	-8	-2.4	-9	0.2
Cc1cccc(-c2nc3c4ccccc4nc(NCc4ccc(F)cc4)n3n2)c1	3.2%	.	3	.	.	-0.1
N#C/C(=C/c1ccc(-c2cc([N+](=O)[O-])ccc2Cl)o1)C(N)=O	1.4%	-11	-1	4.2	3	0.2
Following part:
SMILES	PINK1 modulator	Six1-Eya2 blk	TRPML1 blocker	D2 agonist	D2 PAM	TRPML1 ag
CCCS(=O)(=O)c1nc(S(=O)(=O)c2ccc(C)cc2)c(NCCN2CCOCC2)s1	-0.4%	1	-22	-3.3	-9	0.3
O=C(OCCOCCN=C1NS(=O)(=O)c2ccccc21)c1ccccc1Br	-1.4%	-1	7	-5.9	-5	0.6
Cc1cc(C)c(S(=O)(=O)NCCSCc2ccco2)c(C)c1	2.8%	-20	-7	-12	-15	-0.3
CCC1CCCCN1CCCNC(=O)Cn1ncc2c(C)n(Cc3ccccc3Cl)c(C)c2c1=O (configuration not stated)	-1.3%	-10	-24	-0.2	-5	0.6
O=C(CSc1nnc(Cc2ccccc2)o1)Nc1ccc(Br)cn1	-2.1%	4	-7	-0.4	-6	-1.1
CCc1nnc(NS(=O)(=O)c2ccc(NC(=S)NC(=O)/C=C/c3ccccc3)cc2)s1	4.3%	-17	-13	-2.2	-7	-0.6
COc1ccccc1NS(=O)(=O)c1ccc(C)c(C(=O)NCC2(N(C)C)CCCCC2)c1	1.4%	-2	-10	-2.0	-3	1.5
O=C(Cc1ccccc1[N+](=O)[O-])N/N=C/c1cccnc1	2.7%	-2	-5	-3.9	-13	1.9
O=S(=O)(c1ccccc1)c1nnn2c1nc(Nc1ccccc1)c1cc(Cl)ccc12	-1.8%	.	-12	.	.	0.8
Cc1ccc(C(=O)Nc2ccc(C(=O)OCc3cc(=O)n4nc(C5CC5)sc4n3)cc2)cc1	?	.	11	.	.	1.3
COc1ccc2oc(=Nc3ccccc3)c(-c3nc4ccccc4[nH]3)cc2c1	-1.1%	12	52	0.9	8	0.3
O=C(Cn1nc([N+](=O)[O-])nc1Br)NC1CCCCC1	0.4%	5	9	6.2	19	-1.1
C[C@H](NC(=O)OC(C)(C)C)C(=O)N/N=C/C1=Cc2ccccc2OC1	-0.8%	-3	-2	-4.1	-4	1.3
Cc1cccc(NC(=O)c2cccc(N3C(=O)C4C5CCC(C5)C4C3=O)c2)c1C (configuration not stated)	?	2	15	-3.5	1	-0.8
CCN1C(=O)[C@H]2[C@@H](c3ccc(-c4ccc(OC)cc4)c(OC)c3)N3CCCC[C@@]3(C(=O)OC)[C@H]2C1=O	1.0%	-16	58	-4.3	-8	0.9
CC1=NN(c2cccc(Cl)c2)C(=O)C1	5.9%	3	-5	0.8	-9	-0.3
CCN(Cc1ccccc1)S(=O)(=O)c1cc(C(=O)c2c(N)n(C)c(=O)n(C)c2=O)ccc1OC	-0.8%	0	-19	-5.1	-27	0.6
CC(C)COc1nc2c(c(=O)n(C)c(=O)n2C)n1C	0.6%	-3	0	-5.1	1	-0.4
C[C@@]1([C@@H](NC(=O)c2cccs2)c2ccc(-c3ccccc3)cc2)C[C@H]1C1CCCCC1	3.2%	2	-6	-2.8	-11	0.1
